Resorufin autofl = resorufin region autofluorescence; Compound fluorescence, resorufin region 547/598 nm, buffer; hits give high values; max dye-equivalent concentration, M; hit rate 0.04% among 59,000; active = above 10 nM dye equivalent; inconclusive = 1 to 10 nM; inactive = 1 nM or less; a few of its hits are not listed in these tables; note: highest value over a series up to 38 µM
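Compounds in 100 mM Tris, pH 8.0, incubated 15 min at room temperature, then fluorescence read at 547 nm excitation/598 nm emission. Signal converted to dye-equivalent concentration via an on-plate six-point resorufin standard curve, per compound concentration.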
AID923 = qHTS Assay for Allosteric/Competitive Inhibitors of Caspase-1: Spectroscopic Profiling in AFC Spectral Region | compound fluorescence, AFC spectral region (405/520 nm); almost no hit is shown here | Potency, µM (titrated, usually from 57.5 µM), without a hit: top-dose fluorescence increase, usual class: activators | AID 923, 2007 | hit rate 1.1% among 75,000; active = well fitted activation curve with a large enough effect; inconclusive = small, poorly fitted or top-dose-only effect;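 note: potency is the fitted concentration of half-maximal effect; 0% is about no effect; scaled to a free AFC standard on each plate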
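Baseline compound fluorescence (AFC region, 405 nm ex/520 nm em) taken from the intercept of kinetic reads with 50 nM caspase-1 and 5 uM Ac-WEHD-AFC; normalized to an on-plate AFC standard curve; compounds titrated up to 57 uM.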
A488 autofl = A488 region autofluorescence; compound autofluorescence, A488 spectral region, dye equivalency; hits give high values; max dye equivalency, M; hit rate 0.1% among 59,000; AID 591; active = above 10 nM dye equivalent; inconclusive = 1 to 10 nM; inactive = 1 nM or less; about half of its hits are not listed in these tables;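 note: highest value over a series up to 38 µM; compound alone in buffer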
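Readout is A488 dye-equivalent concentration, calibrated by a per-plate six-point Alexa 488 series. Compounds in 100 mM Tris buffer pH 8.0 were incubated 15 min at room temperature. Plates were imaged using 480 nm excitation/540 nm emission filters.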
TSHR ag = agonists of human thyroid stimulating hormone receptor; AID 926; HEK293-CNG-TSHR cells (CNG channel as cAMP sensor), membrane potential dye, cAMP; hit rate 0.48% among 73,000; Potency, µM (titrated, usually from 57.1 µM), inactives show at the top dose activation, hits mostly activators; P16473; active = well fitted activation curve of enough size with the parental cells flat; inconclusive = any curve in the parental cells; inactive = parental cells flat and receptor cells flat or falling; note: potency is the fitted concentration of half-maximal effect; % of control where 0% means no effect; weak receptor curves with flat parental cells got no call and are not listed
Target sequence (P16473 whole entry, looked up): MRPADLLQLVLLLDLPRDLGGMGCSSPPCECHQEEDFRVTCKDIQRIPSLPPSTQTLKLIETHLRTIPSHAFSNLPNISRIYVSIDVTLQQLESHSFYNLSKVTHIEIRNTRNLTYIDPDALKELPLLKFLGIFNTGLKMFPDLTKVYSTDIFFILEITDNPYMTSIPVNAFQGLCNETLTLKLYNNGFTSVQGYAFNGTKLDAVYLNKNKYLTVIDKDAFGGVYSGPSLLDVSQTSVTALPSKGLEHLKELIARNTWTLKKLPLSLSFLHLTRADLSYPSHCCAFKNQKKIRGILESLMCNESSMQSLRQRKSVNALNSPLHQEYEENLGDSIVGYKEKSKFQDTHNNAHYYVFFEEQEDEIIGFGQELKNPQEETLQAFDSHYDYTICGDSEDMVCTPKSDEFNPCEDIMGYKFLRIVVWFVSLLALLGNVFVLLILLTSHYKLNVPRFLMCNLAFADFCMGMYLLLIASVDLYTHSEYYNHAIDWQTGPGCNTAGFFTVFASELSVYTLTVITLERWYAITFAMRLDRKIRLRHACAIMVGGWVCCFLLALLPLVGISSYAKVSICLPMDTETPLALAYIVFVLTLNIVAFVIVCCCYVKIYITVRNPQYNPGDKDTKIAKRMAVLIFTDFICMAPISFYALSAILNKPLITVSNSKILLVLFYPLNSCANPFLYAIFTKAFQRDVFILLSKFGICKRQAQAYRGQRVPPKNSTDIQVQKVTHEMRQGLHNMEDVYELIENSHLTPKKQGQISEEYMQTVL
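cAMP rise detected as CNG-channel membrane depolarization by fluorescent dye (emission 590 nm), 30 min after compound, following 60 min dye loading containing 100 uM RO 20-1724 at room temperature. Cells: TSHR/CNG HEK 293, with parental CNG HEK 293 as control.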
A647 fluor = compound fluoresces in the A647 spectral region; Compound fluorescence, A647 channel (570/671 nm), Tris buffer; max dye-equivalent concentration, M; 59,000 tested, under 10 active; active means above 1 µM dye equivalent; inconclusive means 0.1 to 1 µM; inactive means 0.1 µM or less;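 note: values scaled relative to a standard on each plate; highest value over a series up to 38 µM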
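Buffer was dispensed, compounds and Alexa 647 standards were pin-transferred, and plates sat 15 min at room temperature. Intensity at 570/671 nm was then converted to dye-equivalent concentration using the plate's A647 standard curve.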
* = called active by the depositor; i = inactive; ? = inconclusive; / = not tested or not shown; [ ] = dose if it differs, or a comment. An excerpt; count on the stated rates, not on these rows.

SMILES	Resorufin autofl	AID923	A488 autofl	TSHR ag	A647 fluor
COc1ccc(NC(=O)c2cc(=O)c3ccccc3o2)cn1	i	7.0%	i	-7%	1e-09
COc1cc(C2C(C#N)=C(N)Oc3c2oc(CO)cc3=O)cc(OC)c1OC (configuration not stated)	i	0.9%	i	-5%	1e-09
Brc1cccc(-c2nnco2)c1	i	0.6%	i	1%	1e-09
CCCc1[nH]nc2c1C(c1cc(OC)ccc1F)C(C#N)=C(N)O2 (configuration not stated)	i	1.3%	i	1%	1e-09
Cc1ccc(S(=O)(=O)N2CCC(C(=O)N[C@H](C(=O)N3CCN(C)CC3)C(C)C)CC2)cc1	i	0.6%	i	-1%	8.3e-09
COc1ccc(N=C2SC(C(=O)O)CC(=O)N2C)cc1 (configuration not stated)	/	2.1%	/	8%	/
COCC(=O)Nc1ccc(C)c(Cl)c1	i	-1.5%	i	1%	3.6e-08
COC(=O)c1cc(-c2c(C)oc3cc(OC(C)C)ccc3c2=O)c(C)o1	i	0.6%	i	12%	1.8e-08
CCOc1ccc(OCCN2C(=O)NC3(CCCc4ccccc43)C2=O)cc1 (configuration not stated)	i	-2.0%	i	5%	4.1e-09
O=C(CN1C(=O)CC(c2ccccc2)=Nc2ccccc21)NCc1ccco1	i	-0.9%	i	?	1.2e-09
CS(=O)(=O)N(Cc1cc2ccccc2[nH]c1=O)C1CCCCC1	i	0.6%	i	?	1.1e-08
c1nc(NCC2CCCO2)c2[nH]cnc2n1 (configuration not stated)	i	-0.4%	i	2%[11.4 µM]	3.1e-08
CCC(=O)NCCn1c(C)cc2ccccc21	/	-2.0%	/	?	/
Cc1ccc(C)c(/C(=N\N=C(N)N)C2CC2)c1	i	-1.6%[11.5 µM]	i	2%[11.4 µM]	4.1e-08
COc1ccc(N(C(=O)c2ccco2)S(=O)(=O)c2cc(OC)ccc2OC)cc1	i	-1.9%	i	?	1e-09
O=C(c1ccc2c(=O)n(-c3ccccc3)c(=O)[nH]c2c1)N1CCN(c2ccc(F)cc2)CC1	i	-0.4%	i	6%	1.3e-09
CC[C@H](C)C(=O)O[C@@H]1C[C@H](C)C=C2C=C[C@H](C)[C@@H](CC[C@H]3C[C@@H](O)CC(=O)O3)[C@H]21	i	0.0%[25.7 µM]	i	-3%[25.6 µM]	1e-09
COc1ccc(CCNC(=O)c2c(O)c3c([nH]c2=O)CCCC3)cc1	i	0.5%	i	5%	2.7e-09
O=C(c1ccccn1)N(CC1CCCO1)C1(C(=O)NC2CCCCC2)CCCCC1 (configuration not stated)	i	1.7%	i	?	1.1e-08
CCOC(=O)CSc1nc2ccccc2c(=O)n1NC(=O)c1ccccc1	i	-1.6%	i	12%	1e-09
CCOc1ccccc1/C=c1\sc2nc(-c3ccco3)nn2c1=O	i	0.2%	i	4%[11.4 µM]	1.2e-08
COc1cc(C(=O)OC2CCN(C)CC2)cc(OC)c1OC	i	0.2%	i	0%	1e-09
O=C(O)CSC1CC(=O)N(c2ccc(Cl)cc2)C1=O (configuration not stated)	i	-2.5%	i	-4%	1.7e-09
COC(=O)c1nc(NC2=NCCCCC2)n[nH]1	i	0.2%	i	2%	2.8e-08
CCCCCC(=O)N1CCN(CCN=CC2=C(O)CC(c3ccco3)CC2=O)CC1 (configuration not stated)	i	-0.8%	i	-2%	1e-09
COc1ccc(C(=O)N2CCC[C@@]3(CCN(C(=O)Nc4cccc(F)c4)C3)C2)cc1	i	-0.5%	i	13%	4.4e-09
COc1cccc(C2CC(c3ccc(C)cc3)n3nc(N)nc3N2)c1 (configuration not stated)	/	0.5%	/	0%	/
CC1=Nc2ncnn2C(c2ccccc2)/C1=N\O (configuration not stated)	i	2.6%	i	-5%[11.4 µM]	5.4e-09
CC(=O)C1=C(C)NC(=O)NC1c1cccc(O)c1 (configuration not stated)	i	0.3%	i	3%	1e-09
O=C1c2nc3ccccn3c2C(=O)N1Cc1ccccc1	/	9.3%	/	0%[11.4 µM]	/

Rewritten as labelled records: entries from further up
SMILES: COc1cc(C(=O)OC2CCN(C)CC2)cc(OC)c1OC
  Resorufin autofl = i; AID923 = 0.2%; A488 autofl = i; TSHR ag = 0%; A647 fluor = 1e-09

SMILES: O=C(O)CSC1CC(=O)N(c2ccc(Cl)cc2)C1=O (configuration not stated)
  Resorufin autofl = i; AID923 = -2.5%; A488 autofl = i; TSHR ag = -4%; A647 fluor = 1.7e-09

SMILES: COC(=O)c1nc(NC2=NCCCCC2)n[nH]1
  Resorufin autofl = i; AID923 = 0.2%; A488 autofl = i; TSHR ag = 2%; A647 fluor = 2.8e-08

New compounds follow:
SMILES	Resorufin autofl	AID923	A488 autofl	TSHR ag	A647 fluor
Cc1oc(-c2ccccc2F)nc1CS(=O)(=O)CC(=O)NCCCN(C)C1CCCCC1	i	-0.3%	i	6%	1e-09
Cc1cc(C(=O)N2CCC(C(F)(F)F)n3nccc32)on1 (configuration not stated)	i	-0.5%	i	3%	1e-09
CCOC(=O)c1ccc(NC(=O)CN2C(=O)CNC2=O)cc1	i	0.4%	i	-7%	1.5e-08
O=C(C1Cc2ccccc2CN1S(=O)(=O)c1cccs1)N1CCCCCC1 (configuration not stated)	i	0.0%	i	22%	1e-09
CC1CCC/C(=C\Nc2ccc3c(c2)OCO3)C1=O (configuration not stated)	i	1.0%	i	5%	1e-09
C=CCc1c(C)nc(SC)nc1Nc1ccc(C(=O)O)cc1	i	2.1%	i	-3%	1e-09
CCOC(=O)C1C(=O)NC(N2CCN(c3ccccc3)CC2)=NC1c1ccco1 (configuration not stated)	i	1.8%	i	16%	8.7e-09
Cn1c(NCc2ccco2)nc2c1c(=O)n(Cc1ccc(Cl)cc1)c(=O)n2C	i	-0.1%	i	-32%[inhibitor]	2.3e-08
CN1CCN(Cc2ccc(-c3ccc(Cl)cc3)o2)CC1	/	1.5%	/	17%	/
Cc1ncn(-c2ccccc2O)c1C	i	-2.4%[11.5 µM]	i	-3%[11.4 µM]	3.7e-08

In another format: entries from further up
> Cc1oc(-c2ccccc2F)nc1CS(=O)(=O)CC(=O)NCCCN(C)C1CCCCC1
  Resorufin autofl: i	AID923: -0.3%	A488 autofl: i	TSHR ag: 6%	A647 fluor: 1e-09

> Cc1ncn(-c2ccccc2O)c1C
  Resorufin autofl: i	AID923: -2.4%[11.5 µM]	A488 autofl: i	TSHR ag: -3%[11.4 µM]	A647 fluor: 3.7e-08

Carrying on:
SMILES	Resorufin autofl	AID923	A488 autofl	TSHR ag	A647 fluor
Cc1cc(C)cc(N(CC(=O)NCc2cccnc2)S(C)(=O)=O)c1	i	-0.3%	i	1%	1.9e-08
CC(=O)Nc1nonc1-c1nc2ccccc2n1CCC#N	i	0.2%	i	-4%	1e-09
CC(C)C(c1nnnn1Cc1ccc(F)cc1)N1CCN(C2CCCCC2)CC1 (configuration not stated)	i	-0.2%	i	?	2e-08
O=C1c2ccccc2C(=O)N1Cc1nc(-c2ccccc2)no1	i	0.3%	i	21%	1.9e-08
Cc1cc(C)n(CC(O)COc2ccccc2C(=O)Nc2ccccc2)n1 (configuration not stated)	i	0.5%	i	?	1.6e-08
CCOC(=O)CNC(=O)C(=O)c1c(O)[nH]c2ccccc12	i	0.8%	i	-4%	2.1e-09
CCOC(=O)C1CCN(C(=O)C2CCN(c3nc4ccc(OC)cc4s3)CC2)CC1	i	-0.1%	i	?	3e-08
Cc1ccc(S(=O)(=O)c2nc(-c3ccc(F)cc3)oc2SCC(N)=O)cc1	i	-1.4%	i	?	1.6e-08
CCc1cccc(C)c1NC(=O)C1C2CCC(O2)C1C(=O)O (configuration not stated)	i	-0.7%	i	1%	1e-09
CN(C)c1oc(-c2cccs2)nc1C#N	i	/	i	/	1e-09
COc1ccc(OC)c(-c2cc(C(=O)N3CCN(c4ccccc4)CC3)no2)c1	/	4.0%	/	20%	/
O=C1Cc2c([nH]c3ccc(Br)cc23)-c2ccccc2N1	i	-2.6%	i	?	1e-09
CCn1c(=O)cc(SCC(=O)NCc2ccccn2)c2ccccc21	i	-0.1%	i	-4%	3.9e-09
N#Cc1c(N)nc(-c2ccccc2)nc1-c1ccccc1	i	-1.7%	i	13%	1.3e-08
Cc1csc(SCC(=O)O)n1	i	-0.7%	i	-2%	1.2e-09
COc1cccc(Nc2ncc3nc(CCc4ccccc4)c(=O)n(C[C@H]4CCCO4)c3n2)c1	i	15%	i	8%	1e-09
c1ccc2c(c1)ncn2CCn1cnc2ccccc21	i	-1.1%	i	11%	1.7e-09
O=c1n(-c2ccccc2)c(=O)n(Cc2ccccn2)n1Cc1ccccn1	i	0.6%	i	-9%	1.5e-08
CC(C)OC(=O)c1nnc(Cc2ccc(F)cc2)o1	/	2.8%	/	-1%	/
N#Cc1nc(COc2ccccc2)oc1N1CCOCC1	i	2.6%	i	7%	8.1e-09
COc1ccccc1N1CCN(C2CCN(C(=O)c3cc(OC)c(OC)c(OC)c3)CC2)CC1	i	/	i	/	7.8e-09
CCC(=O)N1CCc2cc(S(=O)(=O)NC(C(=O)NCc3ccc(F)cc3)C(C)C)ccc21 (configuration not stated)	i	-1.4%	i	3%	6.3e-09
CCCn1c(C)nc2c(NCCN3CCCCC3)nc(C)nc21	/	3.0%	/	2%	/
Cc1cc(=O)[nH]c(SCc2nc3ccccc3s2)n1	i	-0.4%	i	6%	2.2e-08
CCOc1cc(C2C3=C(CCCC3=O)NC3=C2C(=O)CCC3)ccc1OCCO	i	4.0%	i	-13%	3.1e-08
CCC(Sc1nc2ccccc2[nH]1)C(=O)Nc1cc(C)on1 (configuration not stated)	i	-4.1%	i	5%	1e-09
O=C(O)c1ccc2cc[nH]c2c1	i	-1.1%	i	-10%	4e-08
COc1ccccc1-c1nn2c(C(F)(F)F)nnc2s1	i	-2.0%	i	5%	3.1e-09
COc1cccc(NC(=O)N2CCN(C(=O)C(Cc3ccc(OC)c(OC)c3)NC(C)=O)CC2)c1 (configuration not stated)	i	-0.5%	i	6%	2.5e-08
COc1ccc(CCNC(=O)CSc2nc(C)nc3c2c(=O)n(C)c(=O)n3C)cc1OC	/	-3.5%	/	-11%	/
Cc1nn2c(=O)nc3sc4c(c3c2[nH]c1=O)CCCC4	i	-0.7%	i	1%	2.8e-08
COc1cc(C(=O)Nc2ccc(S(=O)(=O)Nc3onc(C)c3C)cc2)cc(OC)c1OC	/	1.4%	/	1%	/
O=C(CSc1nnc(-c2c[nH]c3ccccc23)o1)N1c2ccccc2CCc2ccccc21	i	0.1%	i	-7%	1e-09
N#Cc1cccc(-c2cncnc2NCc2cccnc2)c1	i	-0.1%	i	5%	1e-09
CCOc1ccc(-c2[nH]nc3c2C(c2ccc4c(c2)OCO4)C(C#N)=C(N)O3)cc1OC (configuration not stated)	i	9.2%	i	1%	1e-09
Cc1cc(NC(=O)CSc2nnnn2Cc2ccccc2)no1	i	-1.1%	i	2%	9.7e-09
CCCSc1nc(N2CCCC2)c2c(c1C#N)CC(C)(C)OC2	i	/	i	/	5.7e-09
CN(C)c1ccc(NC(=O)Cn2cc3c(n2)CCCC3)cc1	/	-1.8%	/	?	/
Cc1cccc(NC(=O)c2snc3c(=O)[nH]cnc23)c1	i	0.7%	i	?	3.6e-08
Fc1ccc(OCc2nc(-c3ccc(Br)o3)no2)c(F)c1	/	-1.0%	/	?	/
CC(=O)Nc1ccc(-c2nnn(CC(=O)c3ccccc3)n2)cc1Cl	i	-1.0%	i	2%	1.8e-08
COc1cccc([C@@H]2Oc3ccc(OC)cc3/C(=N/O[C@@H](C)CN3CCCCc4nc(C)c(C)cc43)[C@@H]2O)c1	/	3.3%[11.5 µM]	/	?	/
CCOC(=O)C1=C(C)NC(=O)C1CC(=O)Nc1ccccc1 (configuration not stated)	i	/	i	/	1e-09

Screening results deposited in PubChem by National Center for Advancing Translational Sciences (NCATS).
